Screens deposited in PubChem by National Center for Advancing Translational Sciences (NCATS).
miR-21 FLuc: miR-21 reporter, rising signal | AID 2288 | Potency, µM (series often up to 38.3 µM), inactives show at the top dose reporter change, positive = more light | HeLa miR-21 FLuc reporter, luciferase, 48 h | 340,000 tested, under 10 active; active = well fitted rising curve with a large enough effect; inconclusive = small, poorly fitted or top-dose-only effect; inactive = no such curve, though single readings can be large or run the other way;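 note: % of control where 0% means no effect; miR-21 action dims this reporter so a rising signal means less miR-21 action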
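HeLa miR-21-FLuc reporter line, endogenous miR-21; 2000 cells/well in DMEM/10% FBS; compound titration up to ~40uM final, 48 h, 37 degree Celsius; luciferase detection reagent, 15 min lysis, CCD luminescence.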
Rango release inh: inhibitors of RanGTP-induced Rango-importin beta complex dissociation | O95149+P62826 | Biochemical FRET Rango-importin beta, RanGTP-induced dissociation | Potency, µM (series often up to 46.1 µM), for the others: at the highest dose activity change, negative = inhibition | 340,000 tested, 0.071% active; active means falling FRET ratio curve, often poorly fitted, with flat reads before Ran was added; inconclusive means other falling curves, or compound fluorescence or quenching; inactive means flat or rising ratio curve;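 note: potency is the fitted concentration of half-maximal effect; % of control where 0% means no effect; nearly all actives have a fitted effect of over 45% in size; -100% = wells without RanGTP and RCC1; the record marks most hits as doubtful in a second field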
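Quantitative HTS using a FRET biosensor: 0.1 uM Rango, 0.25 uM importin beta, 0.6 uM Ran, 2 mM GTP, 0.2 uM RCC1 final, PBS with DTT, Tween-20 and BSA. Post-read taken 45 min after Ran addition.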
Rango-impB inh: prevents formation of the Rango-importin beta complex; Potency, µM (highest dose often 92.2 µM), for inactives: top-dose inhibition of complex formation; Rango CFP/YFP FRET sensor + importin beta, 45 min; AID 540263; Q14974; 340,000 tested, 0.031% active; active = rising FRET ratio curve, often small or poorly fitted; inconclusive = mostly compound fluorescence or quenching in the first reads; inactive = flat curves in all reads;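 note: potency is the fitted concentration of half-maximal effect; 0% = DMSO wells and 100% = buffer wells lacking importin beta; nearly all actives have a fitted effect of over 15% in size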
Target sequence (Q14974 whole entry, looked up): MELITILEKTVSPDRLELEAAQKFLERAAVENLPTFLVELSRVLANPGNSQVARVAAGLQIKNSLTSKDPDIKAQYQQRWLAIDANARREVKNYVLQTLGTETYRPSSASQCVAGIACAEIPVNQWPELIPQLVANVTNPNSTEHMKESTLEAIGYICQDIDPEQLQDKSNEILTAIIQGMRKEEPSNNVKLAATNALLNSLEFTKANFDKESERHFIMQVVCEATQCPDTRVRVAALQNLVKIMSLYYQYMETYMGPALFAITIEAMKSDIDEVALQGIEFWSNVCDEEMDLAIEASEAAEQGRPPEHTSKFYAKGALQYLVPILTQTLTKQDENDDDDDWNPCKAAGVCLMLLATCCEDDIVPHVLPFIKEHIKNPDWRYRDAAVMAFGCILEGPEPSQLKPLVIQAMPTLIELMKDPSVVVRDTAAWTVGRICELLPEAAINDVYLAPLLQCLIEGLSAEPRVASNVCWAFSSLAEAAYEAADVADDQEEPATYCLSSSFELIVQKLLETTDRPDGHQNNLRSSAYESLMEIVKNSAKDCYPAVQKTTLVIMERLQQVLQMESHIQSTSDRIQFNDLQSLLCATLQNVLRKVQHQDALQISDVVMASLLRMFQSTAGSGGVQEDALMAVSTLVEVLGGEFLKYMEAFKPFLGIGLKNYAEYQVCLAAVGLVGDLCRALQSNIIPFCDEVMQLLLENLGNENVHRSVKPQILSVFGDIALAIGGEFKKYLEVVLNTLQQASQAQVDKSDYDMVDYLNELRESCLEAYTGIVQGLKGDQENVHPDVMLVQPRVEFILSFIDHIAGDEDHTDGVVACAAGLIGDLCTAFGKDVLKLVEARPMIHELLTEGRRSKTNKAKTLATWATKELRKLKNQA
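FRET biosensor Rango (snurportin 1 IBB between N-terminal EYFP and C-terminal Cerulean), 50 nM in PBS/1 mM DTT/0.02% Tween-20/0.1% BSA, preincubated 5 min RT with compound; 0.125 microM importin beta added, 45 min RT, CFP/YFP FRET ratio read.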
GLA inh pH 4.5: alpha-galactosidase A (human) inhibition, pH 4.5. 230,000 tested, under 10 active. P06280. activity change, negative = inhibition, % at 105 µM. purified enzyme, 4-MU-alpha-Gal fluorescence, pH 4.5; inconclusive = small, poorly fitted or top-dose-only inhibition, or a rising curve; inactive = flat fitted curve, though single readings scatter; no compound was filed as active;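 note: 0% = full activity with enzyme and -100% = basal without enzyme; dose as in the result columns while the protocol names 77 µM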
* = called active by the depositor; ? = inconclusive; nt = not tested or not shown. Only part of the results is shown (hit frequency here may not be typical).

SMILES,miR-21 FLuc,Rango release inh,Rango-impB inh,GLA inh pH 4.5
Cc1nn(-c2cccc(Cl)c2)c2c1C(c1ccncc1)C(C#N)=C(N)O2 (stereo unspecified),-2.6%,-14.6%,0.4%,-2.1
CN(C)C(=O)CSc1n[nH]c(=O)n1CCc1ccccc1,-1.1%,16.0%,-0.3%,nt
COc1ccc(OC)c(/C=N/NC(=O)c2cc3c(OC)c(OC)ccc3[nH]2)c1,12.3%,-5.2%,-3.0%,1.0
CCOC(=O)[C@H]1[C@H]2COc3ccc(OC)cc3[C@@H]2N2C(=O)c3cc(OC)c(OC)cc3NC(=O)[C@@]12C,nt,7.9%,-3.6%,nt
Cc1ccc(C(=O)Nc2ccccc2-c2ccccc2)cc1[N+](=O)[O-],-0.7%,17.3%,4.3%,6.6
CS(=O)(=O)Nc1cccc(C(=O)OCCCOc2ccc(F)cc2)c1,5.4%,44.8%,-2.2%,nt
O=c1c2ccccc2cnn1-c1ccc(Cl)nn1,-13.6%,-2.3%,2.1%,5.5
Cc1ccc(C(=O)CCc2ccc(N)cc2)cc1,-40.0%,0.5%,-1.9%,nt
Clc1ccc(Cl)c(Oc2ccc(Oc3nc(Cl)ccc3Cl)cc2)n1,-0.2%,14.5%,0.3%,3.5
O=c1[nH]cnc2c1c(-c1ccccc1)cn2-c1cccc(Cl)c1,-9.1%,-9.4%,?,nt
N#CCCN(CCC#N)C(=O)C1c2ccccc2Oc2ccccc21,-2.2%,-7.9%,1.3%,nt
Cc1ccccc1NC(=O)NCCc1ccc(Cl)cc1,-16.8%,1.5%,-0.5%,4.0
CSCCC(NS(=O)(=O)c1ccccc1)C(=O)OC(C)C(=O)Nc1ccc(Cl)cn1 (stereo unspecified),nt,0.0%,-1.0%,nt
O=C(O)c1ccc(N2C(=O)c3cccc(Oc4ccc(Cl)cc4)c3C2=O)cc1,-0.1%,-25.1%,1.3%,9.2
CCOC(=O)c1cccc(NC(=O)Cn2nc(C)n3cccc3c2=O)c1,-5.6%,0.2%,4.1%,nt
COc1ccc(C(c2c(O)cc(C)oc2=O)c2c(O)cc(C)oc2=O)cc1,-1.8%,15.5%,-1.3%,-0.7
CCOC(=O)c1nc[nH]c1C,0.2%,-20.0%,-1.3%,2.2
CCCC(c1nnnn1Cc1ccc(OC)cc1)N1CCN(c2ccccc2)CC1 (stereo unspecified),-5.9%,20.5%,0.8%,-5.7
COc1ccc(C(=O)NCC2(N3CCCCC3)CCCCC2)cc1S(=O)(=O)N(C)C,-0.9%,0.2%,-0.4%,nt
CC(=O)Nc1ccc(S(=O)(=O)N2CCN(c3cc(C)nc4ncnn34)CC2)cc1,8.8%,-6.7%,0.4%,-2.7
COc1ccc([C@@H]2[C@@H]3C(=O)N(C(C)(C)C)C(=O)[C@@H]3[C@]3(Cc4ccccc4)C(=O)N(c4ccc(OC)cc4)C(=O)N23)cc1,nt,4.6%,-0.9%,nt
C=CCn1c(=O)c2ccccc2n2c(SCC(=O)c3ccccc3)nnc12,-9.5%,-8.8%,0.8%,-7.8
COc1ccc(CCn2c(=N)c(C(=O)NC3CCCCC3)cc3c(=O)n4ccccc4nc32)cc1,0.7%,-16.9%,?,nt
S=C(NCc1ccco1)NC1CCCc2ccccc21 (stereo unspecified),5.9%,-6.1%,9.4%,6.4
Cc1ccnc(NS(=O)(=O)c2ccc(NC(=O)Cc3ccc(Br)cc3)cc2)n1,-4.2%,5.5%,-5.2%,nt
COc1cccc(C2=NOC(C(=O)Nc3cc(C)nn3-c3ccccc3)C2)c1OC (stereo unspecified),14.2%,-10.3%,-1.9%,6.3
CCc1c(C(=O)Nc2cc(C(=O)OC)ccc2C)csc1C,-0.5%,10.8%,-2.1%,nt
COc1ccc(C(=O)COC(=O)[C@H](C)Nc2ccc(C(F)(F)F)cc2[N+](=O)[O-])c(OC)c1,-2.0%,-28.4%,-1.1%,-6.1
CC(C)c1c(C(=O)N/N=C/c2ccc3c(c2)OCO3)nnn1-c1nonc1N,-1.3%,6.2%,7.1%,nt
O=C(COC(=O)/C=C/c1ccc([N+](=O)[O-])cc1)NC1CCCCC1,nt,-4.3%,-0.4%,nt
COc1ccc(C2C3=C(CC(C)(C)CC3=O)Oc3ncn4nc(-c5ccccc5)nc4c32)cc1 (stereo unspecified),nt,9.1%,0.5%,nt
O=C(CSc1cnc2ccccc2n1)c1ccc(F)cc1,-54.6%,-3.7%,4.1%,-1.3
COc1ccc(C(=O)NNC(=S)NC(=O)c2cccnc2)cc1,-0.6%,13.4%,1.0%,-2.0
O=C1CC(NS(=O)(=O)c2cccs2)CN1c1ccccc1 (stereo unspecified),nt,9.3%,-0.5%,nt
CCCOc1ccc(NC(=O)CC2C(=O)N(C)C(=S)N2Cc2cccs2)cc1 (stereo unspecified),?,4.1%,-3.3%,-8.5
COc1ccc(NC(=O)C2CSC3c4ccccc4C(=O)N23)cc1 (stereo unspecified),-8.1%,8.1%,0.5%,-4.3
CC12COC3(C(=O)Nc4ccccc4F)CC1CCC32C (stereo unspecified),3.1%,3.8%,0.3%,0.3
CC(C)N1CCc2c(sc(NC(=O)Cc3ccccc3)c2C#N)C1,0.3%,?,?,nt
CCOc1ccc(-n2nnnc2SCC(=O)NC2CCCC2)cc1,-1.9%,9.3%,-0.4%,nt
O=C(NC1CCCCC1)C(c1ccncc1)N(Cc1ccc2c(c1)OCO2)C(=O)C(F)(F)F (stereo unspecified),-11.2%,-18.8%,-4.0%,4.0
CC(=O)n1cc([C@@H]2C=C(C(=O)N3CCN(C)CC3)O[C@H](OCc3ccc(CO)cc3)C2)c2ccccc21,nt,-8.0%,-0.8%,nt
c1ccc(Oc2nnc(-c3cccs3)c3ccccc23)cc1,-13.2%,-6.2%,2.3%,-9.2
COC(=O)[C@]1(Cc2ccccc2)N[C@H](CN(C)C(=O)c2ccc(C)cc2)[C@@H]2C(=O)N(Cc3ccccc3)C(=O)[C@@H]21,nt,1.2%,-2.0%,nt
COc1ccccc1Nc1nc(C2(C)CCC(=O)O2)cs1 (stereo unspecified),-21.9%,-8.1%,-2.2%,-4.6
COCCNCCCCOc1ccc(C)cc1[N+](=O)[O-],-2.2%,37.8%,5.9%,-0.7
CCOc1ccc(CN2CCN(C3CCSCC3)CC2CCO)cc1 (stereo unspecified),4.4%,2.6%,-0.5%,9.4
CCC(C)(C)C1CCc2[nH]nc(C(=O)NCc3ccc(Cl)cc3)c2C1 (stereo unspecified),nt,-9.2%,1.7%,nt
COc1cc(-c2cc(C(=O)Nc3ccc(N4CCOCC4)cc3)c3ccccc3n2)cc(OC)c1OC,13.5%,38.5%,-0.5%,-11.4
CN(C(=O)COC(=O)COc1ccc(N(C)S(=O)(=O)c2ccc(Cl)cc2)cc1)c1ccccc1,nt,1.3%,-1.0%,nt
Cc1ccc(S(=O)(=O)N(CC(=O)c2ccc(Cl)cc2)C(=O)N2CCN(C)CC2)cc1,nt,51.7%,2.7%,nt
COc1ccc(Cc2noc(CN(C)Cc3cccc(-n4cccn4)c3)n2)cc1OC,0.5%,-2.6%,-0.9%,-1.9
Cc1nnc(SCc2cccc([N+](=O)[O-])c2)o1,-15.0%,-0.2%,4.4%,1.3
CC(C)c1ccc(C(=O)CSc2ncn[nH]2)cc1,-33.6%,9.9%,-6.7%,2.1
Cc1cccc(NS(=O)(=O)c2ccc3c(c2)NC(=O)CO3)c1C,0.0%,13.7%,-8.3%,nt
C=CCN=C1CC(C)(C)CC(=O)/C1=C(\O)c1ccccc1,-1.0%,23.5%,-2.5%,3.9
O=C(CCNS(=O)(=O)c1ccc(Cl)cc1)N1CCCCCC1,-3.6%,-0.2%,1.1%,nt
COc1ccc(CC2(CO)CCN(Cc3cnn(-c4ccccc4)c3)CC2)cc1,0.7%,-2.5%,-2.8%,3.0
CCC(C)C1C(C#N)=C(N)OC2=C1C(=O)CC(C)(C)C2 (stereo unspecified),2.8%,-9.7%,-1.2%,1.0
O=C(Nc1nnc(SCC(=O)N2CCOCC2)s1)c1ccccc1Cl,-10.3%,-4.5%,-2.9%,1.0
Cc1ccc(S(=O)(=O)n2nc(-n3c(C)ccc3C)c3c(F)cccc32)c2ccccc12,-1.2%,-12.8%,-0.1%,-6.0

The results go on:
SMILES,miR-21 FLuc,Rango release inh,Rango-impB inh,GLA inh pH 4.5
O=C(CSc1nnnn1-c1cccnc1)Nc1ccc(F)cc1F,1.5%,-5.0%,1.5%,nt
CCN(CC)C(=O)[C@]1(c2ccccc2)C[C@@H]1CN,-0.2%,nt,nt,2.2
OC(COc1ccc(Br)cc1)CN1CCN(c2ccccc2)CC1 (stereo unspecified),-3.3%,-10.8%,-0.4%,nt
CC12C(=O)N(CCC(=O)O)C(=O)C1C1C=CC2C1 (stereo unspecified),0.9%,2.7%,0.2%,5.0
Cc1nnc(SCC(=O)NCc2ccc(Cl)cc2)[nH]c1=O,-0.7%,0.8%,0.0%,-12.5
CC(C)(C)OC(=O)N1CCC[C@H]1c1nnc(SCc2c(Cl)cccc2Cl)o1,-5.0%,13.1%,-2.1%,-9.4
O=C(Cn1cnc(S(=O)(=O)N2CCCCC2)c1)Nc1ccc(OC(F)(F)F)cc1,-1.4%,6.6%,-0.1%,nt
CCc1nn(C(C)C(=O)NCc2cccc(OC)c2)c(=O)c2cc3occc3n12 (stereo unspecified),-4.7%,1.1%,0.1%,nt
Cc1ccc(NC(=O)c2nc[nH]c2C(=O)N(C)Cc2ccccc2)cc1,nt,13.3%,-1.5%,nt
Cc1nc2nc(SCC(=O)NCCCN3CCCC3)nn2c(C)c1Cc1ccccc1Cl,-6.7%,-1.4%,5.4%,nt
CCCN1CCC(NC(=S)Nc2cccc(Cl)c2Cl)CC1,-1.3%,-11.4%,-5.4%,4.7
C/C(=N\Nc1nc(-c2cc(C)ccc2C)cs1)c1cc2ccccc2oc1=O,-5.2%,1.4%,-5.8%,-5.9
CCOc1ccccc1NC(=O)/C(C#N)=C/c1c(C)nn(-c2ccccc2)c1Cl,-1.5%,1.0%,0.8%,-0.5
O=C(c1ccc(Cl)c(S(=O)(=O)NCc2ccco2)c1)N1CCN(c2ccc(F)cc2)CC1,28.1%,-12.8%,-3.3%,-1.6
N#Cc1c(/N=C/c2ccco2)sc2c1CCCCC2,-59.5%,-4.8%,-2.7%,0.1
CCS(=O)(=O)c1ccc2c(c1)N(S(=O)(=O)c1ccc(OC)cc1)CC(C(=O)O)O2 (stereo unspecified),-1.4%,9.2%,0.0%,-11.9
COC(=O)Cn1c(=O)cnc2ccccc21,-4.9%,5.8%,?,4.1
O=C(CNC(=O)c1ccc(Cl)cc1Cl)OCc1cn2cc(Br)ccc2n1,nt,5.9%,-0.4%,nt
CCc1ccc(C2C(C#N)=C(N)Oc3cc(N)ccc32)cc1 (stereo unspecified),-3.1%,?,?,nt
COCCCNC(=O)c1c(N)n(-c2ccc(S(N)(=O)=O)cc2)c2nc3ccccc3nc12,-15.9%,?,?,14.6
CCOc1ccc(NC(=O)CSc2nc3c(c(=O)n2C)SC(C)C3)cc1 (stereo unspecified),5.6%,0.6%,-1.1%,1.9
Cc1ocnc1C(=O)Nc1ccc(Cl)cc1,-52.8%,-4.2%,-0.3%,6.3
CCN(CC)Cc1oc(-c2ccccc2)cc1C(=O)O,-1.6%,2.0%,1.6%,4.9
COc1ccc(-n2c(=O)[nH]cc(C(=O)Nc3ccccc3)c2=O)cc1,-9.2%,18.3%,-4.6%,5.1
Cn1c2ccccc2c2nnc(SCC(N)=O)nc21,-9.4%,3.9%,-1.0%,nt
C[C@@H](NC(=O)[C@@H]1Cc2ccccc2CN1C(=O)OC(C)(C)C)C(=O)NC1CCCC1,2.3%,-1.2%,-2.0%,nt
Cc1cc(=O)[nH]c(SC/C=C/c2ccccc2)n1,-28.8%,2.7%,1.3%,-0.7
